# Compound activity deposited in PubChem by NMMLSC.
# FPR – FPR binders displacing fluorescent formyl peptide, primary screen, U937-FPR cells, fMLFK-FITC, flow cytometry (AID 362); inhibition, %; U937-FPR cells, fMLFK-FITC displacement, flow cytometry; active compounds read high; test concentration not given here; most inactive calls were filed without a number and no value below 0 was filed; actives 1% (n = 4,300);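 active means inhibition of labelled peptide binding to the formyl peptide receptor of at least 65%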;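 further: plate controls were buffer control wells for no effect and unlabeled fMLFF blocking peptide for full effect; higher means less cell fluorescence so more probe displaced; part of the set was picked by virtual screening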
# Numbers without * were called inactive; i = inactive. The list is partial; count on the stated rates, not on these rows.
# Preview (two entries):
FPR | mol
1 | COc1ccc(N2C(=O)C(C)SC23CCCCC3)cc1 (centres undefined)
i | CC(C)CN(CC(C)C)S(=O)(=O)N1CCC(C(=O)NCc2ccc3c(c2)OCO3)CC1

# This part in full (from the top)
FPR | mol
1 | COc1ccc(N2C(=O)C(C)SC23CCCCC3)cc1 (centres undefined)
i | CC(C)CN(CC(C)C)S(=O)(=O)N1CCC(C(=O)NCc2ccc3c(c2)OCO3)CC1
3 | CC(C)C(NC(=O)C1CCCCC1)C(=O)NC1=NCCS1 (centres undefined)
i | COCCOC(=O)C1=C(C)NC2=C(C(=O)C(C(=O)OC)C(C)C2)C1c1ccccc1OC(C)C (centres undefined)
i | COC(=O)CN1C(=O)C2(C(C#N)=C(N)OC3=C2C(=O)CC(C)(C)C3)c2ccccc21 (centres undefined)
i | CCc1cc2c3c(c(=O)oc2cc1OCC(=O)OC(C)(C)C)CCCC3
i | CC(C)CCNC(=O)CSc1nc2ccccc2c(=O)n1CC1CCC(C(=O)NCc2ccccc2)CC1 (centres undefined)
i | CCOc1ccc(NC(=O)C(NS(=O)(=O)c2ccc3c(c2)CCN3C(C)=O)C(C)C)cc1 (centres undefined)
i | COc1cc(C(=O)N(c2ccccn2)C2CCCCC2)cc(OC)c1OC
3 | CC(C)c1ccc(NC(=O)C2C3C=CC4(O3)C2C(=O)N(CCN2CCOCC2)C4C(=O)NC2CCCCC2C)cc1 (centres undefined)
i | CC1(C)CC(=O)C2=C(C1)N(c1ncn[nH]1)C(N)=C(C#N)C2c1cccs1 (centres undefined)
3 | CCOc1cc(C2NC(=O)NC(C)=C2C(=O)OCC2CCCCC2)ccc1O (centres undefined)
12 | COc1cccc(NC(=O)C2C3C=CC4(O3)C2C(=O)N(CCN2CCOCC2)C4C(=O)NC2CCCCC2C)c1 (centres undefined)
40 | COc1ccc(C2CC(=O)C3=C(C2)NC(C)=C(C(=O)OCC(C)C)C3c2ccc(O)c(OC)c2)cc1 (centres undefined)
i | CCOC(=O)CSc1ccc(C(=O)N2CCCCC2)cc1[N+](=O)[O-]
i | CCCC1=C(C(=O)OCC)C(c2ccc(Br)cc2)n2ncnc2N1 (centres undefined)
6 | CC(=O)NCC(=O)N(c1c(C)n(C)n(-c2ccccc2)c1=O)C1(C(=O)NC2CCCCC2)CCCCC1
i | O=C(Nc1ccc(OCc2ccccc2)cc1)C12CC3CC(C1)CC(n1cncn1)(C3)C2
i | CC1=C(C(=O)OCC(F)(F)C(F)(F)F)C(c2ccc3c(c2)OCO3)NC(=O)N1 (centres undefined)
3 | COc1cccc(C2C(C(=O)OC3CCCCC3)=C(C)Nc3ncnn32)c1OC (centres undefined)
i | CCCCNC(=O)c1cn(CC(C)C)c(=O)c2cc(OC)c(OC)cc12
i | O=C(CSc1nc(-c2ccccc2)nc2c1CCCC2)NCc1ccccc1
23 | COc1cc(C2NC(=O)N(C)C(C)=C2C(=O)OC2CCCCCC2)cc(Br)c1O (centres undefined)
13 | CC1=C(C(=O)OC2CCCCC2)C(c2ccc(O)c([N+](=O)[O-])c2)NC(=O)N1 (centres undefined)
23 | CC(=O)Nc1ccc(C2OC3=C(C(=O)CC(C)(C)C3)C(N)=C2C#N)cc1 (centres undefined)

# Shown as tab-separated lines: part of the list above.
Molecule	FPR
CC1=C(C(=O)OC2CCCCC2)C(c2ccc(O)c([N+](=O)[O-])c2)NC(=O)N1 (centres undefined)	13
CC(C)c1ccc(NC(=O)C2C3C=CC4(O3)C2C(=O)N(CCN2CCOCC2)C4C(=O)NC2CCCCC2C)cc1 (centres undefined)	3
COc1cc(C(=O)N(c2ccccn2)C2CCCCC2)cc(OC)c1OC	i
COc1ccc(N2C(=O)C(C)SC23CCCCC3)cc1 (centres undefined)	1

# Further compounds follow.
FPR | mol
5 | CCCCCCC(O)(c1ccc(OCC)cc1)C(CN1CCOCC1)c1ccccc1 (centres undefined)
i | COc1ccc(C2C(C(=O)O)CC(=O)N2C2CCCCC2)cc1 (centres undefined)
i | O=C1C2C3C=CC(C3)C2C(=O)N1c1ccc(NCc2cccc(C(F)(F)F)c2)c([N+](=O)[O-])c1 (centres undefined)
14 | Cc1[nH]nc2c1C(CC(C)C)C(C#N)=C(N)O2 (centres undefined)
i | COC(=O)C1C(=O)C2=C(CC1C)NC(C)=C(C(=O)OC1CCCC1)C2c1ccc(C)s1 (centres undefined)
12 | CC1CC(C)CN(C(=O)c2ccc(S(=O)(=O)N3CC(C)CC(C)C3)cc2)C1 (centres undefined)
52 | O=C(NCCc1ccccc1)C1CCC(CNS(=O)(=O)c2ccc(Br)s2)CC1 (centres undefined)
10 | CCC(C)OC(=O)C1=C(C)NC2=C(C(=O)C(C(=O)OC)C(C)C2)C1c1cccc(Br)c1 (centres undefined)
i | Cc1ccccc1C(=O)Oc1ccc(C2C3=C(CC(C)(C)CC3=O)OC3=C2C(=O)CC(C)(C)C3)cc1
i | COc1ccc(N2CCN(C(=O)Cn3cnc4sc(C)c(S(=O)(=O)N5CCC(C)CC5)c4c3=O)CC2)cc1
27 | COC(=O)c1c(-c2cccc(C)c2)csc1NC(=O)C1C2CCC(C2)C1C(=O)O (centres undefined)
i | Cc1ccc(S(=O)(=O)/N=C(/CN2CCCCC2)N2CCN(S(=O)(=O)c3ccc(C)cc3)C2C(C)C)cc1 (centres undefined)
i | COCCNC(=O)CC(NS(=O)(=O)c1ccc(NC(C)=O)cc1)C(C)C (centres undefined)
i | COc1ccccc1N1CCN(C(=O)c2cc(N3C(=O)C4C5CCC(C5)C4C3=O)ccc2Cl)CC1 (centres undefined)
i | CCOc1ccc(NC(=O)CSc2c3c(nc4ccccc24)CCCC3)cc1
9 | O=S(=O)(Nc1ccc2c(c1)OCCO2)c1ccccc1C(F)(F)F
i | CCOC(=O)c1cc2c(=O)n3ccccc3nc2n(CC(C)C)c1=NC(=O)c1ccccc1Cl
i | CC(C)Cn1cc(C(=O)N2CCN(c3ccc(Cl)cc3)CC2)c2c3ccccc3n(C)c2c1=O
i | O=C(CSc1nc2ccccc2c(=O)n1CC1CCC(C(=O)NCCc2ccccc2)CC1)Nc1nccs1 (centres undefined)
3 | COc1cc(C2C(C(=O)OC3CCCCC3)=C(C)NC3=C2C(=O)CCC3)cc(Br)c1O (centres undefined)
i | CC(C)CC(NC(=O)C(Cc1ccc2c(c1)OCO2)NC(=O)c1ccccc1)C(=O)O (centres undefined)
i | Cc1ccc(S(=O)(=O)/N=C(/CN2CCOCC2)N2CCN(S(=O)(=O)c3ccc(C)cc3)C2C(C)C)cc1 (centres undefined)
i | COCCCNC(=O)CSc1c2c(nc3ccccc13)CCCC2
i | COC(=O)Cn1c(CN2CC(C)CC(C)C2)nc2c1c(=O)n(C)c(=O)n2C (centres undefined)
0 | CC(C)C(C(=O)Nc1nc(-c2ccc(Br)cc2)cs1)N1C(=O)c2ccccc2C1=O (centres undefined)

# (further entries)
FPR | mol
i | CCCCn1c(SCC(=O)NCC2CCCO2)nc2ccc(N3CCOCC3)cc2c1=O (centres undefined)
i | COCCNC(=O)CSc1nc2cc3c(cc2c(=O)n1CCCCCC(=O)NCc1ccc(OC)cc1)OCO3
i | CCC1(C)C(C#N)C(=O)NC(=O)C1C#N (centres undefined)
i | CCSc1nnc(NC(=O)C2CC=CCC2C(=O)O)s1 (centres undefined)
i | CCCCCOC(=O)C1=C(C)NC(=O)NC1c1cc(OC)c(O)c(OC)c1 (centres undefined)
13 | CN(C)c1ccc(C2C3=C(CC(C)(C)CC3=O)Nc3ncnn32)cc1 (centres undefined)
i | CC1(C)CC(=O)C2=C(C1)Nc1nnnn1C2c1ccccc1Cl (centres undefined)
17 | Cc1c(OC(=O)c2ccco2)ccc2c3c(c(=O)oc12)CCC3
i | COc1ccc(CCNc2ccc(N3C(=O)C4C5C=CC(C5)C4C3=O)cc2[N+](=O)[O-])cc1 (centres undefined)
i | CC1(C)CC(=O)C2=C(C1)N(c1ncn[nH]1)C(N)=C(C#N)C2c1ccccc1 (centres undefined)
i | O=C1C2=C(c3ccccc31)[N+](=O)[C@@H]1CCCC[C@@H]1N2[O-]
i | COC(=O)CNC(=O)c1cn(CC(C)C)c(=O)c2cc(OC)c(OC)cc12
i | CCOC(=O)c1cc2c(=O)n3ccccc3nc2n(CC(C)C)c1=NC(=O)c1ccc(-c2ccccc2)cc1
12 | CC(NC(=O)C1CCC(CNS(=O)(=O)c2ccc(Br)s2)CC1)c1ccccc1 (centres undefined)
4 | CCOC(=O)C1CCC(CN(Cc2ccccc2Cl)S(=O)(=O)c2ccc(C)cc2)CC1 (centres undefined)
9 | COC(=O)C1C(=O)C2=C(CC1C)NC(C)=C(C(=O)OC1CCCCC1)C2c1cccc(O)c1 (centres undefined)
i | O=C(NCC1CCCO1)C1CCC(CNS(=O)(=O)c2ccc(Cl)cc2)CC1 (centres undefined)
10 | CCSCCOC(=O)C1=C(C)NC2=C(C(=O)C(C(=O)OC)C(C)C2)C1c1ccc(O)cc1 (centres undefined)
12 | COC(=O)C1=C(C)NC2=C(C(=O)C(C(=O)OC)C(C)C2)C1c1ccc([N+](=O)[O-])cc1 (centres undefined)
i | CCOc1ccc(OCC)c(NC(=O)C2CCC(CNS(=O)(=O)c3ccc(Br)s3)CC2)c1 (centres undefined)
i | CCCOC(=O)COc1cc2oc(=O)c3c(c2cc1Cl)CCCC3
16 | COc1ccc(S(=O)(=O)N(Cc2ccc(Cl)cc2)CC2CCC(C(=O)O)CC2)cc1 (centres undefined)
77* | CCCc1cc(=O)oc2cc(OC(C)=O)cc(OC(C)=O)c12
37 | CCOc1cc(C2C3=C(CC(C)(C)CC3=O)OC3=C2C(=O)CC(C)(C)C3)cc(I)c1OC
8 | CCCCOc1ccc(N2C(N)=NC(N)=NC23CCCCC3)cc1

# Reformatted bar-delimited: 5 of the compounds above.
molecule | FPR
CCOc1ccc(OCC)c(NC(=O)C2CCC(CNS(=O)(=O)c3ccc(Br)s3)CC2)c1 (centres undefined) | i
CCCOC(=O)COc1cc2oc(=O)c3c(c2cc1Cl)CCCC3 | i
COc1ccc(S(=O)(=O)N(Cc2ccc(Cl)cc2)CC2CCC(C(=O)O)CC2)cc1 (centres undefined) | 16
CCCc1cc(=O)oc2cc(OC(C)=O)cc(OC(C)=O)c12 | 77*
CCOc1cc(C2C3=C(CC(C)(C)CC3=O)OC3=C2C(=O)CC(C)(C)C3)cc(I)c1OC | 37

# Later entries.
FPR | mol
6 | CCC(C)OC(=O)C1=C(C)NC2=C(C(=O)C(C(=O)OC)C(C)C2)C1c1ccc(Cl)c([N+](=O)[O-])c1 (centres undefined)
20 | O=C(COC(=O)C1CCC(N2C(=O)C3C4CCC(C4)C3C2=O)CC1)c1ccc(F)cc1 (centres undefined)
i | CC(C)CC(C(=O)NCC1CCCO1)N1C(=O)c2ccccc2C1=O (centres undefined)
3 | Cc1cccc(NC(=O)C2C3C=CC4(O3)C2C(=O)N(CCN2CCOCC2)C4C(=O)NC2CCCCC2C)c1 (centres undefined)
i | N#Cc1c2c(c(=O)n3c1[nH]c1ccccc13)CCCC2
10 | CCC(C)OC(=O)C1=C(C)NC2=C(C(=O)C(C(=O)OC)C(C)C2)C1c1ccc(O)c(OC)c1 (centres undefined)
i | CCc1ccc(OCCCC(=O)Oc2ccc3c4c(c(=O)oc3c2)CCC4)cc1
i | CCCC1=C(C(=O)OCC)C(c2ccccc2OC)NC(=O)N1 (centres undefined)
39 | CCOc1cccc(C2C(C(=O)OCCOC(C)C)=C(C)NC3=C2C(=O)C(C(=O)OC)C(C)C3)c1 (centres undefined)
i | CC(=O)c1ccc2c(c1)C1C=CCC1C(C(=O)O)N2 (centres undefined)
i | COC(=O)c1sc2ccccc2c1NC(=O)c1ccc(S(=O)(=O)N2CC3(C)CC2CC(C)(C)C3)cc1 (centres undefined)
4 | CCCOC(=O)C1=C(C)NC2=C(C(=O)C(C(=O)OC)C(C)C2)C1c1ccccc1OC (centres undefined)
i | CNC(=O)C1CCC(CNS(=O)(=O)c2ccc(NC(C)=O)cc2)CC1 (centres undefined)
i | CC(C)C(C(=O)Nc1sc2c(c1C#N)CCCCC2)N1C(=O)c2ccccc2C1=O (centres undefined)
3 | CC(C)CC(C(=O)Nc1nc(-c2ccc(Br)cc2)cs1)N1C(=O)c2ccccc2C1=O (centres undefined)
0 | CCC(C)NC(=O)CSc1nc2ccccc2c(=O)n1CC1CCC(C(=O)NCc2ccco2)CC1 (centres undefined)
10 | CCOc1ccc(CCNC(=O)C2CCC(CNS(=O)(=O)c3ccc(Cl)cc3)CC2)cc1OCC (centres undefined)
25 | CCc1ccc(Oc2c(C(F)(F)F)oc3c(CN4CCCCC4C)c(O)ccc3c2=O)cc1 (centres undefined)
9 | CCOC(=O)C1CCCN(C(=O)c2cn(CC(C)C)c(=O)c3c2c2ccccc2n3C)C1 (centres undefined)
i | CC(C)Cn1cc(C(=O)NCc2ccco2)c2c3ccccc3n(C)c2c1=O
i | CC(C)Cn1cc(C(=O)NCCN(C)Cc2ccccc2)c2c3ccccc3n(C)c2c1=O
i | COc1cccc(C2C(C#N)=C(N)N(c3ncn[nH]3)C3=C2C(=O)CC(C)(C)C3)c1 (centres undefined)
10 | O=C(NCCCN1CCCC1=O)C1CCC(CNS(=O)(=O)c2ccccc2)CC1 (centres undefined)
52 | COC(=O)C(NC(=O)c1ccccc1)(Nc1sc2c(c1C(N)=O)CCC2)C(F)(F)F (centres undefined)
i | COC(=O)C1C(=O)C2=C(CC1C)NC(C)=C(C(=O)OC(C)C)C2c1cc(OC)c(OC)cc1OC (centres undefined)

# Further results.
FPR | mol
9 | CCCCC(NS(=O)(=O)c1ccc2c(c1)OCCO2)C(=O)O (centres undefined)
i | CC1(C)CC(=O)C2=C(C1)OC(c1cc3c(cc1[N+](=O)[O-])OCO3)C(C#N)=C2N (centres undefined)
i | CC(=O)N1CCCc2cc(S(=O)(=O)NC3CCCCCC3)ccc21
14 | CC(C)CN(CC(C)C)C(=O)C1CCN(S(=O)(=O)c2cccc3nsnc23)CC1
3 | COC(=O)C1C(=O)C2=C(CC1C)NC(C)=C(C(=O)OC1CCCCCC1)C2c1ccc(N(C)C)cc1 (centres undefined)
